Compound activity: PubChem BioAssay, ICCB-Longwood Screening Facility, Harvard Medical School
Choline anaer gr = growth inhibitors of anaerobic choline-fed gram-negatives, minimal medium, absorbance; Gram-negative bacterium anaerobic choline minimal medium; stronger effect = lower value; many inactives read as strong as hits in the columns shown; calls only; 55,000 tested, 0.2% active;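 active = growth z-score on choline under -2 at 7 or 20 h with little or no fall on glycerol, limits in tiers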;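 note: stock transfer was 300 nL into about 50 µL; the organism is E. coli; final concentration not given here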
Choline anaer gr early = second read-out of Choline anaer gr, no call of its own (marks repeat the call); z-score; measured here: choline growth z-score, timepoint 1;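 score of optical density at 7 h as mean of two plates; lower means less growth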
An asterisk follows results filed as active; i = inactive; & = joins results of further samples. Not all compounds are listed (hit frequency here may not be typical).

structure	Choline anaer gr early	Choline anaer gr
Cn1cc(C(=O)Nc2ccc(Br)cc2F)c2[nH]c(=O)n(-c3ccc(Cl)cc3)c(=O)c21	-1.45	i
Clc1cccc(Nc2nc(NCC3CCCO3)nc3c2cnn3-c2ccccc2)c1 (stereo unspecified)	0.6	i
O=C(NC1CCCC1)c1cn2c(n1)CSCC2	-0.33	i
Cc1nn(Cc2cccc(F)c2)c(=O)c2noc(C)c12	-0.25	i
Nc1ccc(C(=O)NCC(=O)O)cc1	0.41&-0.21	i
CCOc1cccc(-c2nn3c(CSc4ccccc4)nnc3s2)c1	0.78	i
CCS(=O)(=O)N1CCCN(C2=NS(=O)(=O)C(c3ccc(Cl)cc3)=C2C)CC1	0.46	i
O=C(NC1CC1)C1CCN(c2ncnc3onc(-c4cccc(F)c4)c23)CC1	1.41	i
CCCc1nc2ccccc2n1CC(O)COc1cccc(C)c1 (stereo unspecified)	-1	i
Cc1cc(-c2ccc(=O)[nH]n2)cc(S(=O)(=O)N(C)Cc2ccccc2)c1C	0.14	i
CCCCOc1ccc(-c2csc(-c3nc(-c4ccc5c(c4)OCO5)cs3)n2)cc1	-1.03	i
COc1cc(C2N=C(N)Nc3nc4ccccc4n32)ccc1OCCC(C)C (stereo unspecified)	0.06	i
O=C(NC1CCCC1)c1ccc(NC(=O)N2CCSc3ncccc32)cc1	-0.85	i
CN1CCN(c2nc3cc(C(F)(F)F)ccc3n3cccc23)CC1	-1.09	i
COc1ccc(C2CC(=O)Nc3c2c(C)nn3-c2nncc(-c3ccc(F)cc3)n2)cc1OC(C)C (stereo unspecified)	-0.22	i
Cc1cc(C)cc(-n2c(CN3CCN(S(=O)(=O)c4c(C)cc(C)cc4C)CC3)nc3cccnc32)c1	0.87	i
CCOCCCNS(=O)(=O)c1cc2c(cc1C)NC(=O)CO2	-1.33	i
CS(=O)(=O)Nc1cc(C(=O)N2CCN(c3ccc(Cl)cc3)CC2)ccc1N1CCNCC1	-1.3	i
CNC(=O)Nc1ccc(C2(C(=O)N3CCCC3)CCC2)cc1	-0.41	i
Cc1ccc(S(=O)(=O)N(Cc2ccccc2C)c2nc3nc(C)c(Cl)c(C)n3n2)cc1	-0.35	i
COc1ccc(-c2nc3nc[nH]n3c2Nc2ccc(C(C)C)cc2)cc1	1.27	i
Cc1ccc2c(Sc3ccc(Cl)cc3)c(C(=O)NC(C)C)[nH]c2c1	0.93	i
COc1cccc(-n2ccnc(SCC(=O)Nc3ccccc3OC)c2=O)c1	1.44	i
CCOC(=O)C1CCN(C(=O)Cn2nc3c(N4CCSCC4)nccn3c2=O)CC1	0.65	i
Cc1cc(-c2cc(S(=O)(=O)N3CCN(C4CCCCC4)CC3)c(C)s2)on1	1.41	i
COC(=O)c1sc2ncn3c(SCC(=O)Nc4ccc(OC)cc4)nnc3c2c1C	-0.2	i
Cc1csc(-c2csc(S(=O)(=O)N3CCCCCC3)c2)n1	2.61	i
COc1ccc(C)cc1NC(=O)Cn1cnc2onc(C)c2c1=O	-0.76	i
Cc1sc(-c2cc(C(F)(F)F)[nH]n2)cc1S(=O)(=O)NCCc1cccs1	2.1	i
O=C(CC1CCN(S(=O)(=O)c2ccccc2)CC1)N1CCCCC1	0.09	i
O=C(NCCC1=CCCCC1)C1CCN(c2cc(-c3ccccc3)ncn2)CC1	-0.59	i
CCOc1cc(C2Nc3ccc(Br)cc3[C@H]3OCCC[C@@H]23)ccc1OC (stereo partly specified)	2.85	i
Cc1ccc2c(c1)OC=CC(C(=O)NC1CCCCC1)=C2	1.55	i
COc1ccc(Oc2ccnc(-c3cccc(C(=O)NCC(C)C)c3)n2)cc1	0.42	i
COc1c(C)cnc2c1c(=O)n(CC(=O)Nc1ccc(C)cc1)c(=O)n2C	-0.02	i
COc1ccc(CN2CCN(Cc3ccccc3F)CC2)c(OC)c1	0.59	i
c1ccc(-c2nnc(-c3nc(NCCCN4CCC(N5CCCCC5)CC4)c4ccccc4n3)o2)cc1	-0.01	i
COc1ccc(OCC(=O)NC2CC(=O)N(c3ccc4c(c3)OCCO4)C2)cc1 (stereo unspecified)	-0.53	i
O=C(NCCC1=CCCCC1)c1cc2occc2c(Nc2ccc(Cl)cc2)n1	1.39	i
O=S(=O)(Nc1ccc(-c2ccc(N3CCCCC3)nn2)cc1)c1ccc(F)cc1F	0.21	i
Cc1cccc(NC(=O)NCCCN2CCN(c3ccccc3)CC2)c1	-1.38	i
Cc1ccc(CN2CCCC2c2cc(C(C)C)on2)c(C)c1 (stereo unspecified)	1.01	i
CCc1cccc(N2C=C(C(=O)N3CCCC3)S(=O)(=O)c3ccccc32)c1	0.23	i
COc1ccc(S(=O)(=O)N2CCN=C2N2CCN(c3ccccc3F)CC2)cc1	-0.2	i
O=C(NC1CCCCC1)c1cccc(Oc2ccnc(-c3ccc(F)cc3)n2)c1	0.02	i
COc1ccc(NC(=O)c2ccc(CN3C(=O)CCn4nccc43)cc2)cc1	1.62	i
c1ccc(-c2nnc(-c3cccnc3NCc3ccccn3)o2)cc1	0.07	i
CCN(Cc1cc(=O)n2ccsc2n1)c1ccc(OC)cc1	0.31	i
CC1CCC2C(C)C(OC(=O)CCC(=O)O)OC3O[C@@]4(C)CCC1[C@]32OO4 (stereo partly specified)	-2.31	i
CCn1cc(C(=O)CSc2nnc(CN(c3ccc(F)cc3)S(C)(=O)=O)n2C)c2ccccc21	1.03	i

(continued)
structure	Choline anaer gr early	Choline anaer gr
CCOc1ccc(-c2ccc(SCc3nc(-c4cc(OC)cc(OC)c4)no3)nn2)cc1	2.04	i
CCOC(=O)C(C)NC(=O)N1CCCC1c1cc(C(C)C)no1 (stereo unspecified)	-0.18	i
COc1ccc(-c2noc(-c3cc(-c4cccc(Br)c4)n[nH]3)n2)cc1OC	-0.39	i
O=c1ccc(-c2ccc(Cl)c(S(=O)(=O)N3CCc4ccccc4C3)c2)n[nH]1	0.99	i
O=C(Nc1cccc(Cl)c1)C1CCC(=O)N1S(=O)(=O)c1ccccc1 (stereo unspecified)	1.16	i
CCOCCCNC(=O)C1c2c(n(C)c3ccccc23)SCC(=O)N1c1ccc(F)cc1F (stereo unspecified)	-0.17	i
Cn1c(CN(c2ccc(F)cc2)S(C)(=O)=O)nnc1SCC(=O)NC1CC1	0.39	i
CCC(=O)N1CCc2cc(CNS(C)(=O)=O)ccc21	-0.62	i
O=C(NCCc1ccc(Cl)cc1)c1ccc2c(Cl)c3c(nc2c1)CCC3	0.06	i
CCOc1ccc(C2Nn3c(CC)nnc3SC2C(=O)Nc2cccc(C)c2C)cc1 (stereo unspecified)	-0.33	i
COC(=O)C1CCN(C(=O)c2sc3nc(-c4ccccc4)cn3c2C)CC1	-1.28	i
CCNC(=O)N1CCCC(c2cccc(C(=O)N3CCC(N4CCCCC4)CC3)c2)C1 (stereo unspecified)	0.36	i
COc1ccc(N(Cc2cc3cccc(C)c3[nH]c2=O)S(C)(=O)=O)cc1	0.03	i
Cc1ccc(CNC2=NCCNC23CCN(S(=O)(=O)c2ccccc2)CC3)cc1	-0.14	i
COc1ccccc1NC(=O)Cc1csc(-n2nc(C)cc2C)n1	-0.01	i
CCOc1ccc(NC(=O)Cn2c3ccccc3n3c(=O)cc(-c4ccncc4)nc23)cc1	-0.41	i
Cc1nn2c(=O)cc(CN(C)Cc3ccccc3)nc2s1	-0.19	i
Cc1ccc(-c2nc(CCNC(=O)C(C)C)cs2)cc1	0.32	i
Cc1cc(C)c2c(c1)[C@H]1OCCC[C@H]1C(c1ccccc1)N2 (stereo partly specified)	0.31	i
CCS(=O)(=O)c1ccc(-c2cccc(NS(=O)(=O)c3ccc(C)cc3)c2)nn1	1.82	i
CC(C)CC(=O)N1CCC(c2nnc(C(=O)Nc3ccc4c(c3)OCO4)s2)CC1	-0.82	i
CCN(C(=O)c1cc2cccnc2n(Cc2ccccc2)c1=O)C1CCCCC1	-0.34	i
CCCS(=O)(=O)c1nc2ccc(NS(=O)(=O)c3ccccc3F)cc2s1	-0.5	i
Cc1ccc(CNC2=NCCNC23CCN(S(=O)(=O)c2ccc(F)cc2)CC3)cc1	-0.19	i
Cc1cc(C)cc(NS(=O)(=O)c2c(C)sc(C)c2-c2cc(C)[nH]n2)c1	1.64	i
CCCCC[C@H](O)CC[C@@H]1[C@@H](C/C=C\CCCC(=O)O)[C@@H](O)C[C@H]1O	0.55	i
Cc1ccccc1-c1noc(CCc2nnc3ccc(N4CCC(C)CC4)nn23)n1	-1.62	i
Cc1ccc(NC(=O)CCc2nc(-c3ccc(N4CCCC4)cc3)no2)c(Br)c1	-0.09	i
CC(=O)N1c2ccccc2CC1C(=O)N1CCC(C)CC1 (stereo unspecified)	0.49	i
COc1ccc2[nH]c(C(=O)NCc3ccc(C)cc3)c(N3CCCC3=O)c2c1	-1.31	i
Cc1cccc(N2CCN(c3ccc(NS(=O)(=O)c4ccc(F)cc4)c(C(=O)O)c3)CC2)c1C	0.37	i
CCc1onc(C)c1C1CCCN1Cc1cc(C)ccc1C (stereo unspecified)	0.1	i
O=c1n(Cc2nc(-c3ccc(F)c(Br)c3)no2)nc2ccc(-c3ccccc3)nn12	0.04	i
CCc1ccc(CC2C(=O)Nc3ccc(C)cc32)cc1 (stereo unspecified)	0.39	i
CCS(=O)(=O)c1ccc(O)c(Nc2cc(-c3ccccc3)ncn2)c1	1.54	i
O=S(=O)(Cc1ccc(Cl)cc1)c1ccc(NCC2CCCO2)nn1 (stereo unspecified)	-0.76	i
CCCn1c(=O)c2sc(N3CCCCC3)nc2n(CC(=O)NCCC2=CCCCC2)c1=O	0.95	i
Cn1c(CCc2ccc(NC(=O)c3n[nH]c4c3CCCC4)cc2)nc2ccccc21	1.52	i
C=CCN1CCN(c2nc3cc(C(=O)OC)ccc3c(=O)n2-c2ccc(OC)c(OC)c2)CC1	0.56	i
CCCN(CCc1ccccc1)C1CCc2c(O)cccc2C1 (stereo unspecified)	-0.29	i
CCOc1cccc(-c2noc(CSc3ccc(-c4ccccc4F)nn3)n2)c1	0.43	i
COc1ccc(-n2c(C)cc(CNC(=O)NCC(C)C)c2C)cc1	-0.06	i
O=C(C1CC1)N1CCc2cc(Br)c(S(=O)(=O)N3CCC(Cc4ccccc4)CC3)cc21	-1.13	i
Fc1ccc(-c2nc(-c3ccc(-c4csc(C5CC5)n4)cc3)no2)cc1	-0.8	i
O=C(Cn1c(=O)c(=O)n(Cc2ccncc2)c2ncccc21)NCc1ccccn1	-0.83	i
CCOc1ccc(CNC(=O)c2ccc(Oc3ccnc(-c4ccc(F)cc4)n3)cc2)cc1OCC	0.3	i
Cc1nn(-c2ccccc2)c2c1CN(C(=O)Nc1ccc3c(c1)OCCO3)C(c1ccccc1)c1cccn1-2 (stereo unspecified)	-1.37	i
CCOC(=O)C1CCN(c2cc3c(cc2NC(=O)NC)n(C)c(=O)n3C)CC1	-0.03	i
CCNCc1ccc(-c2cc(Cl)ccc2Cl)o1	-1.31	i
Cc1ccc(NC(=O)N2CCN3CCCCC3C2)c(C)c1 (stereo unspecified)	-1.73	i

Carrying on:
structure	Choline anaer gr early	Choline anaer gr
Cc1ccc(OCCSc2nnc(-c3ccc4c(c3)OCCCO4)n2C)cc1C	-0.47	i
O=C(NCCC1=CCCCC1)c1cccc(Nc2ncc(-c3cccc(F)c3)cn2)c1	0.55	i
Nc1ccc(-c2nc3ccc(-c4nc5ccc(N)cc5[nH]4)cc3[nH]2)cc1	-0.39&0.07	i
Cc1ccc(N2CCN(CC(=O)Nc3c(C(=O)C4CC4)oc4ccccc34)CC2)cc1	-1.55	i
O=C1CC(c2ccccc2)=Nc2ccccc2N1Cc1ccc(F)cc1Cl	-0.23	i
CCOC(=O)c1[nH]c2sc(C)c(C)c2c1NC(C)=O	-0.41	i
Cc1cc(N2CCN(C)CC2)n2nc(-c3cccnc3)nc2n1	-0.83	i
O=C(Nc1ccc2c(c1)OCO2)c1nnc(C2CCN(C(=O)C3CCCC3)CC2)s1	-0.18	i
CC1CCCN(C(=O)c2cn(C)cc3c(=O)n(-c4ccccc4)nc2-3)C1 (stereo unspecified)	-0.1	i
Cc1cc(C)cc(-n2ccn3c(SCc4cc(C)ccc4C)nnc3c2=O)c1	-0.79	i
Cc1noc(C)c1C1CCCN1C(=O)c1c(Br)cnn1C (stereo unspecified)	0.2	i
O=C(c1ccc2ccnc(N3CCN(c4ccccc4)CC3)c2c1)N1CCN(C2CCCCC2)CC1	-1.28	i
CC(=O)Nc1c(C)nn(-c2ccccc2)c1N1CCC(C(=O)N2CCCCC2C)CC1 (stereo unspecified)	-1.33	i
CC(Oc1cccc2ccccc12)c1nc2c3ccccc3ncn2n1 (stereo unspecified)	-0.38	i

A second format for part of the listing above.
O=C(c1ccc2ccnc(N3CCN(c4ccccc4)CC3)c2c1)N1CCN(C2CCCCC2)CC1
  Choline anaer gr early = -1.28
  Choline anaer gr = i
Cc1noc(C)c1C1CCCN1C(=O)c1c(Br)cnn1C (stereo unspecified)
  Choline anaer gr early = 0.2
  Choline anaer gr = i
CC(=O)Nc1c(C)nn(-c2ccccc2)c1N1CCC(C(=O)N2CCCCC2C)CC1 (stereo unspecified)
  Choline anaer gr early = -1.33
  Choline anaer gr = i
CC(Oc1cccc2ccccc12)c1nc2c3ccccc3ncn2n1 (stereo unspecified)
  Choline anaer gr early = -0.38
  Choline anaer gr = i
